High-throughput results from PubChem.
gsp antag: gsp mutant antagonism; AID 624288; Potency, µM (highest dose often 76.9 µM), without a hit: at the highest dose activity change, negative = inhibition, actives largely listed as inhibitors; 0.4% of 340,000 active; gsp-mutant cells, cAMP HTRF, 30 min; control for the full effect not named in the record; active = falling curve of any shape with a large fitted effect; inconclusive = falling curve, mostly with a smaller effect; inactive = flat or rising curve; cell line not stated here;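 further: intracellular cAMP measured with PDE inhibitor Ro 20-1724 present during compound exposure; potency means the concentration at half of the fitted maximal effect; on the % scale 0 is the no-effect control and ±100 the full control effect; nearly all actives have a fitted effect of over 65% in size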
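Cells, 2000/well, grown 16–24 h in DMEM 10% FBS with 0.5 mg/ml G418, then compounds plus […] (300 uM addition stock), 30 min at 37C. cAMP read by HTRF (cAMP-d2 and anti-cAMP antibody-K in lysis buffer) after 30 min RT.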
TRPML1 ag: activates the human TRPML1 channel | TRPML1-expressing cells, Ca2+ dye fluorescence, FDSS; host cell line not named in the record; reference of the full effect not given here | activation, % (concentration not given with the values) | 0.12% of 410,000 active; in the data active = activation above about 50%; inconclusive = about 30% to 50%; inactive = below about 30%; further: 0% is about no effect; the text of the record puts the active cut at 80%
Target sequence (Q9GZU1 whole entry, looked up): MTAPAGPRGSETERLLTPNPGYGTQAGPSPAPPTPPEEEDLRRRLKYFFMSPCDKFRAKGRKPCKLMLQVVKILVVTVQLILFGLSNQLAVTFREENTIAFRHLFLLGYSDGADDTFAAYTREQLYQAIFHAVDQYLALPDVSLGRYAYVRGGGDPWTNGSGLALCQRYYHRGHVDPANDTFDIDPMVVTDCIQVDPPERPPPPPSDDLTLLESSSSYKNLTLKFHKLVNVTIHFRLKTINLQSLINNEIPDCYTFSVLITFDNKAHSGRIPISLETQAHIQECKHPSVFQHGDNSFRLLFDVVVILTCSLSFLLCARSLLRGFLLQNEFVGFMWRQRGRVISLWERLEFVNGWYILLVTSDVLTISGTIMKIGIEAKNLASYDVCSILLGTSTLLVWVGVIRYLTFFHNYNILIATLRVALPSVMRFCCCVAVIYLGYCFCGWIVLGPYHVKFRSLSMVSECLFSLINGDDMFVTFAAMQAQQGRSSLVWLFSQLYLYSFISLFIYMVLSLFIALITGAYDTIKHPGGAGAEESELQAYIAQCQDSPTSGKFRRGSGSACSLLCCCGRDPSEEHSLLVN
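Cells: TRPML1-DL, 1X Tet inducer, ~16 h at 37 degrees C/5% CO2. Dye: ABD Ca8 no-wash + quencher, 45-90 min RT. Read: 10 s baseline, compound add, 110 s agonist phase; 54-4 EC80 (4uM final), 110 s antagonist phase.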
TRPML1 inh: inhibitors of human TRPML1 channel. Q9GZU1. TRPML1-inducible cells, Ca2+ dye fluorescence, FDSS; stronger effect = lower value; inhibition of EC80 agonist-evoked calcium signal. activity change, negative = inhibition, % (no concentration beside the values). 0.02% of 390,000 active; in the data active means activity change below about -50%; inconclusive means about -30% to -50%; inactive means above about -30%;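 further: stimulus is agonist 54-4 at its EC80 concentration; on the % scale 0 is the no-effect control and ±100 the full control effect; compound concentration not given in the record; the text of the record puts the active cut at -80%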
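Tet-induced TRPML1-DL cells loaded with Ca8 no-wash calcium dye were read kinetically on FDSS. Compound addition was followed by EC80 agonist 54-4 (4 uM final); inhibition was read over 110 s.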
ClpP mod: qHTS Assay for Activators of ClpP; purified B. subtilis ClpP, FRET peptide cleavage, 20 min; Potency, µM (series often up to 57.5 µM), without a hit: at the highest dose activity change, negative = active; 1.9% of 340,000 active; active = well fitted falling curve with a large enough effect; inconclusive = small, poorly fitted or top-dose-only effect; inactive = no such curve, though single readings can be large or run the other way; further: potency means the concentration at half of the fitted maximal effect; the source files actives as falling curves though it sought activators and does not explain the sign; nearly all actives have a fitted effect of over 65% in size; many hits overshoot -100%
Target sequence (P80244 whole entry, looked up): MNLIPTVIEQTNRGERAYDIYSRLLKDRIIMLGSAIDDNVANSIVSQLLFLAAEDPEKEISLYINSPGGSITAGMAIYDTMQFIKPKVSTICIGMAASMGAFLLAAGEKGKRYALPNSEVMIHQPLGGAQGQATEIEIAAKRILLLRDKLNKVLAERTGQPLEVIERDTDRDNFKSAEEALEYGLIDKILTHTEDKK
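Buffer: 100 mM Tris/HCl pH8, 100 mM KCl, 0.05% low protease BSA, 2.5% glycerol, 0.01% Tween-20. ClpP 10 microg/mL final; 20 min RT; delta FRET normalized to ADEP and DMSO controls.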
gsp ag: gsp mutant agonism. gsp mutant cells, cAMP HTRF, 30 min; control for the full effect not named in the record. Potency, µM (highest dose often 76.9 µM), for inactives: top-dose activation (cAMP increase), most hits filed as activators. 0.13% of 340,000 active; active = well fitted activation curve with a large enough effect; inconclusive = small, poorly fitted or top-dose-only effect, or another doubt; inactive = no such curve, though single readings can be large or run the other way; cell line not stated here;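 further: phosphodiesterase inhibitor Ro 20-1724 added with compounds to block cAMP breakdown; potency means the concentration at half of the fitted maximal effect; nearly all actives have a fitted effect of over 60% in size; about a fifth of the inactives were tested at one dose only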
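Cells stably selected in G418 were plated at 2000/well, grown 16-24 hr, then given compounds in DMSO with the PDE inhibitor […] (300 uM solution added) for 30 min at 37C; cAMP was read by HTRF.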
Menin MLL FP FL: displaces fluorescein MLL peptide from human menin. Fluorescence polarization, fluorescein-MLL peptide displacement from menin. FP activity change, % at 61.4 µM. 290,000 tested, under 10 active. AID 1766; inconclusive = falling polarisation curve, or a change in total fluorescence; inactive = total fluorescence flat and polarisation flat or rising; no compound was filed as active; the % refers to the polarisation; negative = inhibition;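 further: % of control where 0% means no effect; inhibitors lower the polarisation; unlabelled MLL peptide was the positive control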
Active calls of the source: *; ? = inconclusive; . = not tested or not shown; [ ] = dose if it differs, or a comment.

SMILES	gsp antag	TRPML1 ag	TRPML1 inh	ClpP mod	gsp ag	Menin MLL FP FL
Cc1cccc2cc(C(c3nnnn3Cc3ccccc3)N3CCN(C)CC3)c(=O)[nH]c12 (stereo unspecified)	9.9%	-0.3	5.0	?	10.7%	2.9
CCN(CC(=O)Nc1c(F)cccc1F)C(=O)Cc1csc(-c2ccc(OC)c(OC)c2)n1	2.6%	0.2	30.6	3.16µM*	3.0%	.
O=C(O)c1cc(NC2(c3ccccc3)C(=O)c3ccccc3C2=O)ccc1Cl	.	0.9	8.7	-3.0%	.	.
COc1ccc(-n2c(=S)[nH]c3[nH]ncc3c2=O)cc1	7.8%	-0.4	-1.7	.	-2.9%[15.4 µM]	-0.5
Cc1cccc2cc(C(c3nnnn3Cc3ccc4c(c3)OCO4)N3CCCC3)c(=O)[nH]c12 (stereo unspecified)	5.1%	-0.7	0.0	-4.4%	14.9%	4.2
C[C@H](NC(=O)OC(C)(C)C)C(=O)NCC1CCC(C(=O)O)CC1 (stereo partly specified)	15.1%	2.0	-7.5	-0.9%	-24.7%	1.2
O=C(NCc1ccco1)C(c1ccco1)N(Cc1cccs1)C(=O)Cn1nnc2ccccc21 (stereo unspecified)	12.0%	-0.7	-2.3	-1.1%	-46.5%[inhibitor]	1.7
Cc1onc(-c2c(Cl)cccc2Cl)c1C(=O)Nn1cnnc1	-4.1%[15.4 µM]	-0.4	-5.7	?	-1.5%	3.9
Cc1ccc(/C=C2/Sc3ccccc3N(CC(=O)NCCCOC(C)C)C2=O)cc1	-21.7%	3.9	8.6	79.2%	-37.9%[inhibitor]	3.3
COc1ccc(Nc2cc(C)nc3c(C)cccc23)cc1OC	3.7%	-0.4	-12.8	-2.1%	-19.2%[15.4 µM]	0.7
COc1ccc(-c2oc3ncn4nc(-c5ccccc5Br)nc4c3c2-c2ccc(OC)cc2)cc1	.	-0.5	-3.8	-6.0%	.	.
O=C1c2ccccc2C(=O)N1CCOc1ccccc1	-0.8%[15.4 µM]	1.6	22.1	-2.7%	-9.9%	.
CCOC(=O)C1CCN(C(=O)COC(=O)COc2ccc(Cl)cc2)CC1	4.8%	-0.5	-9.3	1.4%	-19.7%	3.3
Cc1ccc(C)c(-n2cc(CNCCc3cnccn3)c(-c3ccccc3)n2)c1	-0.5%	0.5	-1.6	-1.9%	-12.0%	0.3
COc1cccc(C(=O)c2sc3nc(-c4ccccc4)cc(C(F)(F)F)c3c2N)c1	.	98.2*	?	-4.2%	.	.

Brought forward from above: two compounds; new compounds follow.
SMILES	gsp antag	TRPML1 ag	TRPML1 inh	ClpP mod	gsp ag	Menin MLL FP FL
Cc1ccc(C)c(-n2cc(CNCCc3cnccn3)c(-c3ccccc3)n2)c1	-0.5%	0.5	-1.6	-1.9%	-12.0%	0.3
COc1cccc(C(=O)c2sc3nc(-c4ccccc4)cc(C(F)(F)F)c3c2N)c1	.	98.2*	?	-4.2%	.	.
COc1ccc(C(C)=O)cc1Cn1nnc(-c2ccccc2Br)n1	-2.1%	0.5	32.1	-5.3%	?	4.9
CCn1c(NC(=O)C(C)C)c(-c2cccs2)c(=O)c2ccccc21	-4.5%	0.1	-10.5	-1.1%	4.7%[15.4 µM]	1.3
Cc1cc(NS(=O)(=O)c2ccc(NC(=O)C(C)Oc3ccc(Cl)cc3)cc2)no1 (stereo unspecified)	-0.6%	1.4	2.3	0.6%	?	-0.9
CCC(C)C(=O)Nc1cc(OC)c(OC)cc1C(=O)O (stereo unspecified)	-10.7%	-0.8	9.8	-19.8%	0.0%	3.5
COCc1cc(C)nc2sc(C(=O)OC(C)C)c(N)c12	-1.0%	2.1	-10.7	-11.0%	8.4%	2.3
CC1=CC(C)(C)[N+](C)(C)c2ccccc21	-3.7%	-0.2	4.0	-1.8%	-23.5%	-1.1
CC1(C)CC(=O)C=C(c2cccs2)C1	-0.7%	-0.5	-10.2	-4.8%	-44.1%[inhibitor]	.
CN(CC(=O)Nc1cccc(S(=O)(=O)NC2=NCCCCC2)c1)Cc1ccc(C(C)(C)C)cc1	-23.2%	0.9	1.2	.	12.9%	-6.0
COc1ccc(C2CC(=O)c3cc(OC)ccc3O2)cc1 (stereo unspecified)	2.4%	0.9	-4.2	.	16.4%	.
CN(Cc1cc(=O)[nH]c2ccccc12)C(=O)c1ccccc1	3.6%	1.2	3.4	-28.5%	36.6%	2.1
CCC(C)(C(=O)NC1CCCC1)N(C(=O)c1cnccn1)c1c(C)n(C)n(-c2ccccc2)c1=O (stereo unspecified)	6.6%	-0.5	-1.6	-0.3%	17.0%	4.2
CCOc1ccccc1Nc1nnc(SCC(=O)Nc2ccc3[nH]c(=O)[nH]c3c2)s1	-0.5%	-0.6	-0.1	.	19.3%	0.2
O=C(CCCc1ccccc1)c1ccccc1	-40.3%	0.6	8.2	.	31.5%[15.4 µM]	1.8
Cc1c(Cl)cccc1NC(=O)COc1ccc(S(=O)(=O)N2CCOCC2)cc1	4.0%	0.3	-4.7	-1.4%	-24.3%	6.3
Cc1nn(-c2ccccc2)c2c1C(c1ccc(O)c(O)c1)N1C(=N2)C(Nc2ccccc2)=Nc2ccccc21 (stereo unspecified)	1.0%	0.4	6.3	-23.4%	?	-27.3

Some of these compounds in order of the Menin MLL FP FL value, highest first:
| smiles | gsp antag | TRPML1 inh | gsp ag | Menin MLL FP FL |
| --- | --- | --- | --- | --- |
| C[C@H](NC(=O)OC(C)(C)C)C(=O)NCC1CCC(C(=O)O)CC1 (stereo partly specified) | 15.1% | -7.5 | -24.7% | 1.2 |
| COc1ccc(-n2c(=S)[nH]c3[nH]ncc3c2=O)cc1 | 7.8% | -1.7 | -2.9%[15.4 µM] | -0.5 |
| Cc1cc(NS(=O)(=O)c2ccc(NC(=O)C(C)Oc3ccc(Cl)cc3)cc2)no1 (stereo unspecified) | -0.6% | 2.3 | ? | -0.9 |

The list goes on.
SMILES	gsp antag	TRPML1 ag	TRPML1 inh	ClpP mod	gsp ag	Menin MLL FP FL
O=C(CNC(=S)N(Cc1ccccc1F)C1CCCCC1)NCCCN1CCOCC1	6.6%	-0.5	6.6	.	-4.4%[15.4 µM]	-3.5
CCn1c2c(c3cc(Cl)ccc31)CCCC2=O	-12.4%	-1.3	-13.4	-11.7%	?	-2.3
O=C(CCCCCN1C(=O)[C@@H]2Cc3ccccc3CN2C1=O)Nc1ccccc1F	-13.6%	0.9	-24.2	1.7%	15.9%	.
COc1cccc(C(=O)c2sc(Nc3ccc(C)cc3C)c(S(=O)(=O)c3ccccc3)c2N)c1	.	0.0	-12.9	-10.5%	.	.
CSc1nc(-c2ccccc2)nc(N2CCOCC2)c1C(C)=O	-10.8%	0.7	1.9	-0.6%	-20.8%	1.1
COC(=O)c1cn(C(=O)c2cccs2)c2ccccc12	-7.4%	-0.1	3.6	0.4%	2.5%	0.4
CCn1ncc(NC(=S)NCCc2ccc(OC)c(OC)c2)c1C(N)=O	.	-0.2	7.8	.	1.3%[15.4 µM]	-6.3
Cc1ccc2cc(C)c3nnc(SCC(=O)N4CCN(C(=O)c5ccco5)CC4)n3c2c1	-1.7%	-0.5	-1.3	-26.6%	?	2.1
CCc1ccc(NC(=O)Cn2cccc2)cc1	2.4%	4.0	19.1	0.9%	14.7%	0.6
COc1cc(CNc2ncnc3c2ncn3[C@H]2CN(CCc3ccccc3)C[C@@H](CO)O2)cc(OC)c1OC	.	-0.4	3.8	0.7%	.	.
Nc1c(N2CCN(c3ccccc3)CC2)c2ccccc2oc1=O	-30.0%	0.9	-15.1	6.8%	2.3%	6.1
COc1ccc2c(c1)C(=O)CC(c1ccccc1)O2 (stereo unspecified)	4.8%	0.7	16.1	.	-45.9%[inhibitor]	.
O=C(N/N=C/c1cc(Br)c(O)c(Br)c1)c1cccc(C(F)(F)F)c1	8.6%	-0.9	-6.5	-0.4%	14.1%	.
COc1cc(C(=O)N/C(=C/c2ccc(F)cc2)C(=O)NC(C(=O)O)c2ccccc2)cc(OC)c1OC (stereo unspecified)	-6.3%	0.3	4.8	0.7%	-5.2%	-16.0
Cc1csc(=O)n1CC(=O)OCC(=O)c1ccc(Br)cc1	9.1%	-0.3	-11.9	1.0%	6.5%	.
COc1ccc(C(=O)n2nc(-c3ccc(C)cc3)nc2N)cc1OC	10.6%	1.3	6.4	-11.8%	-18.1%	1.4
CC(=O)Nc1ccc(S(=O)(=O)Nc2nc(C)nc3sc(C)c(C)c23)cc1	-3.8%	1.6	35.0	-2.4%	33.5%	.
CCN(CC)C(=O)c1cc2c(=O)c3cc(F)ccc3oc2nc1C	7.2%	0.5	0.1	.	1.9%	23.0
C=CCn1c(SCC(=O)Nc2ccc(N3CCOCC3)cc2)nnc1-c1ccncc1	-17.7%	0.7	21.8	.	25.8%[15.4 µM]	-4.2
Cc1ccccc1-c1nc(CS(=O)(=O)CC(=O)N2CCc3ccccc32)c(C)o1	5.2%	0.3	20.7	1.1%	-25.0%	-3.2
O=S(=O)(/N=C(/Nc1ccccc1F)c1ccccc1)c1ccccc1	6.3%	1.0	-5.1	-1.1%	1.8%	0.8
Cc1ccc(C2/C(=C(\O)c3ccc4c(c3)OCCO4)C(=O)C(=O)N2Cc2cccnc2)cc1 (stereo unspecified)	18.3%	-0.5	-9.5	0.4%	?	3.4
CCCc1nc(SCC(=O)N2CCCC2)c2ccccc2n1	-0.5%	-0.1	10.4	-0.6%	18.2%	0.4
C=CCNc1nc(N)c([N+](=O)[O-])c(N2CCCCCC2)n1	2.1%	-0.3	7.9	-1.7%	9.9%[15.4 µM]	-4.7
CC(C)N(Cc1nc(-c2ccccc2)no1)C(=O)CN1C(=O)c2ccccc2C1=O	-14.5%	0.2	-3.8	-0.5%	-11.9%	-0.9
CC1CCCN(C(=O)Cn2c(=O)oc3cc(S(=O)(=O)N4CCCCC4C)ccc32)C1 (stereo unspecified)	-1.5%	0.3	-7.6	-0.6%	-42.6%[inhibitor]	.
Cc1cc([N+](=O)[O-])nn1CCCC(=O)Nc1ccc(Cl)cc1Cl	1.5%	-1.1	-15.6	.	?	6.7
O=C(N/N=C/c1cccc([N+](=O)[O-])c1)c1c[nH]c2ccccc12	-14.1%	-0.4	16.9	.	15.0%	1.2
COc1ccc(CN2CCN(Cc3cccc4nonc34)CC2CCO)c(C)c1C (stereo unspecified)	5.1%	-0.5	16.8	0.0%	1.2%[15.4 µM]	-1.9
c1cc2c3c(cccc3c1)NC1(CCCC1)N2	-5.4%	-0.6	-11.2	-1.7%	-9.2%[15.4 µM]	.
Cc1[nH]n(-c2ccccc2)c(=O)c1C(=O)Nc1ccccc1	-16.9%	0.1	24.8	.	-3.3%	0.3
Cc1ccc2c(C(=O)CN3CCCC(C)C3)c(C)[nH]c2c1 (stereo unspecified)	9.5%	0.7	2.6	.	18.4%	3.5
COc1ccccc1CNC(=S)NC1CCCCC1	-14.7%	1.0	-2.4	.	-5.5%[15.4 µM]	-0.1
